# Screening data (PubChem BioAssay)
# VACV Venus inh: vaccinia inhibition (Venus reporter). Vaccinia virus Venus reporter expression, fluorescence. AID 720580. Potency, µM (doses to about 36.5 µM), for inactives: at the highest dose activity change, negative = inhibition, usual class: inhibitors. 330,000 tested, 0.46% active; active means well fitted inhibition curve with a large enough effect; inconclusive means small, poorly fitted or top-dose-only effect; inactive means no such curve, though single readings can be large or run the other way; tested in A549 cells; also: nearly all actives have a fitted effect of over 30% in size; inactives centre near -10
# Vaccinia mCherry: inhibitors of vaccinia virus infection (mCherry reporter signal). Potency, µM (doses to about 36.5 µM), for inactives: at the highest dose activity change, negative = inhibition, usual class: inhibitors. 310,000 tested, 0.63% active. AID 720579. Vaccinia virus mCherry reporter infection, fluorescence; about a quarter of the inactives have no number; active = well fitted inhibition curve with a large enough effect; inconclusive = small, poorly fitted or top-dose-only effect; inactive = no such curve, though single readings can be large or run the other way; tested in A549 cells; also: nearly all actives have a fitted effect of over 35% in size; inactives centre near -10
# Numbers without * were called inactive; i = inactive; ? = inconclusive; · = not tested or not shown; & = joins results of further samples; [ ] = dose if it differs, or a comment. % is scaled to controls: 0 for no effect and ±100 for the full control effect; potency is read from the fitted curve at half-maximal effect.
No.	Molecule	VACV Venus inh	Vaccinia mCherry
1	CCN(CC)CCNC(=O)c1nn(C)c2c1CS(=O)(=O)c1ccccc1-2	-3%	-3%
2	CCN(CC)CC(=O)N1c2ccccc2Oc2c(c(=O)n(C)c(=O)n2C)C1c1cccc([N+](=O)[O-])c1 (stereo not given)	7%	-8%
3	CC(=O)Nc1cc(NC(C)=O)c2nc(N)sc2c1	20%	·
4	O=S1(=O)N[C@@H](Cc2ccccc2)COc2cc(N3CCSCC3)ccc21	-8%	21%
5	CCCn1c(SCC(=O)Nc2cc(C)on2)nc2c1c(=O)n(C)c(=O)n2C	-9%	-15%
6	COc1cc(NC(=S)NCc2ccc(S(N)(=O)=O)cc2)cc(OC)c1	-2%	-9%
7	CCOC(=O)CSc1nc2ccc(C)cc2cc1C#N	-6%	i
8	COc1cccc(OC)c1C(=O)OCC(=O)/C(C#N)=C(\C)N	-1%	9%
9	CCn1c(C(=O)NCc2ccc(C)cc2)cc2sc(Cl)cc21	-4%	-4%
10	COc1ccccc1-n1c(=S)sc2c(=O)n(Cc3ccco3)c(SC)nc21	-22%	-1%
11	C[C@H]1C(=O)N(c2ccccc2)[C@@H]1c1ccccc1	-17%	i
12	CC(=O)Nc1nonc1-c1nnc(SCc2ccc(Cl)cc2)n1C	-11%	1%
13	Cc1c(C(=O)N2CCCCC2)c(S(=O)(=O)NCc2ccc(Cl)cc2)c(C)n1C	-8%	-4%
14	O=C1CCC(C(=O)N2CCN(c3cnccn3)CC2)CN1CCc1ccc(Cl)cc1 (stereo not given)	-8%	-2%
15	COC(=O)c1cccc(Oc2cccc(Cl)n2)c1	-4%	i
16	C=CCOC(=O)C1=C(C)NC(SCC(=O)OCC)=C(C#N)C1c1ccc(O)c(OC)c1 (stereo not given)	-7%	-16%
17	CCc1cccc(C)c1NC(=O)CSc1nc(-c2ccccc2F)nc2nc[nH]c12	-5%	-11%
18	O=C(CN1C(=O)c2ccccc2S1(=O)=O)c1ccc(Cl)cc1Cl	-10%	i
19	CCOC(=O)/C=C/C(=O)OCC(=O)Nc1cccc(Br)c1	-26%	-16%
20	O=C(Nc1cccc2nsnc12)c1ccc2c(c1)OCCO2	-23%	-3%
21	COc1ccc(C(O)P(=O)(O)CCc2ccccc2)cc1 (stereo not given)	-20%	·
22	CC(C)(C)[C@H]1COC(=O)CC/C=C\C[C@@H](CC(=O)N(CCO)Cc2ccccc2)C(=O)N1	1%	-13%
23	C1CCN2C[C@@H]3C[C@@H](CN4CCCC[C@@H]34)[C@H]2C1	-9%	i
24	Cc1cccc2sc(N(Cc3cccnc3)C(=O)CCOc3ccccc3)nc12	-6%	i
25	O=C(NN=C(c1ccccc1)c1ccccc1)C(CCl)C1CCCCC1 (stereo not given)	-16%	i

# (cont.)
No.	Molecule	VACV Venus inh	Vaccinia mCherry
26	O=C(NC1CC2CCC1C2)C1COc2ccccc2O1 (stereo not given)	-10%	-14%
27	COc1ccccc1CNC(=O)c1cc2c(=O)oc3ccc(C)cc3c2s1	-26%	-20%
28	O=C1N(Cc2cccnc2)C[C@@H]2C[C@@H](c3ccc(-c4ccccc4)cc3)N3CCC[C@@]123	-5%	-23%
29	Cc1ccc2c(c1)N(CC(=O)NCc1ccco1)C(=O)CO2	-10%	-9%
30	O=C(COC(=O)Cn1ccc(=O)[nH]c1=O)Nc1ccc(F)cc1	-2%	-14%
31	O=C(O)c1ccccc1N1C(=O)c2cccc3cccc(c23)C1=O	-3%	-19%
32	CCCn1c(CN2CCN(C(=O)c3ccco3)CC2)nc2c1c(=O)n(C)c(=O)n2C	2%	-10%
33	O=C(c1ccco1)N1CCN(C(=O)c2[nH]c(C(F)(F)F)nc2-c2ccccc2)CC1	1%	7%
34	O=C(COC(=O)C1CCN(c2ccc(C(F)(F)F)cn2)CC1)Nc1cc(F)ccc1F	-2%	i
35	CCOC(=O)/C=C/c1ccc2c(c1)S(=O)(=O)N(Cc1ccc(OC)cc1)[C@H]2CC(=O)OCC	0%&-10%	i
36	CN(C)CCCn1c(SCC(=O)Nc2nc(-c3cccc(Br)c3)cs2)nc2ccccc2c1=O	-9%	-13%
37	Cc1cccc(NC(=O)C2CCN(S(=O)(=O)c3ccc4[nH]c5c(c4c3)CCCCC5)CC2)c1	-14%	-20%
38	C=CCCC1(C2=CCCCC2)C(=O)NC(=O)NC1=O	-3%	i
39	O=C(Cn1cncn1)c1ccccc1	-3%	-10%
40	O=C(NCCCn1ccnc1)C(=O)NC1CCCCC1	-13%	-21%
41	CCN(CC)S(=O)(=O)c1cc(C)ccc1NC(=S)Nc1cccnc1	-19%	-19%
42	O=C(NC1CCN(C(=O)Nc2ccccc2)CC1)C1CCCCC1	-12%	-12%
43	C[C@@H](NC(=O)[C@@H]1Cc2ccccc2CN1)C(=O)Nc1ccc2c(c1)OCO2	-3%	3%
44	O=C1NC(=O)N(Cc2ccco2)C(=O)/C1=C/C=C/c1ccco1	71%[activator]	-7%
45	CC1CCc2c(sc3nc(-c4cc5ccccc5oc4=O)nc(Cl)c23)C1 (stereo not given)	3%	6%
46	Cc1cccc(N(C(=O)Nc2ccc(Cl)cc2)C2=NCC(C)S2)n1 (stereo not given)	-12%	-17%
47	Cc1cccc(CC(=O)N2CCC(N3CCC(C(=O)N4CCOCC4)CC3)CC2)c1	-6%	i
48	CC(C)(C)NC(=O)Cn1cnc2cc([N+](=O)[O-])ccc2c1=O	4%	6%
49	Cc1cc(NC(=S)N(CCN2CCOCC2)Cc2ccccc2F)ccc1Cl	-6%	-20%
50	CC(=O)Nc1ccc(NC(=O)C(C)OC(=O)CC2CCCC2)cc1 (stereo not given)	-9%	i

# Next part.
No.	Molecule	VACV Venus inh	Vaccinia mCherry
51	Cc1ccc(S(=O)(=O)N2CCC3(CC2)OCCO3)s1	-6%	-3%
52	CC(=O)c1c(-c2ccccc2)c2ccccc2[nH]c1=O	-4%	-4%
53	Cc1ccc(S(=O)(=O)N(CC(=O)NCc2cccnc2)C2CCCCC2)cc1	-7%	i
54	COc1ccccc1CCNCc1cc2cccc(C)c2nc1-c1cccs1	-3%	-9%
55	Cc1ccc(CNC(=O)CSc2ccc(-c3sc(-c4ccccc4)nc3C)nn2)cc1	?	?
56	O=c1oc2cccnc2n1CCS(=O)(=O)c1ccc(F)cc1	-24%[7.34 µM]	-20%[7.34 µM]
57	CCC(C)(C)NC(=O)/C=C/c1ccccc1[N+](=O)[O-]	-11%	i
58	O=C(c1cccc(OC2CCN(C3CCCC3)CC2)c1)N1CCCCCCC1	-13%	-5%
59	C[C@H](CO)N1C[C@H](C)[C@@H](CN(C)C(=O)NC2CCCCC2)Oc2ccc(NS(C)(=O)=O)cc2C1=O	-5%	-17%
60	CC(C)(c1ccccc1)c1ccc(OCC(O)CNC2CCN(Cc3ccccc3)CC2)cc1 (stereo not given)	?	-13%
61	CCOC(=O)c1sc(NC(=O)c2ccco2)c(C#N)c1C	-5%	-12%
62	COc1ccc(C(=O)NNC(=O)OC(C)(C)C)cc1	2%	-11%
63	CCOc1ccccc1OCC(=O)Nc1c(C)n(C)n(-c2ccccc2)c1=O	-4%	i
64	Cc1cc(C(=O)OCC(=O)Nc2cccc(S(=O)(=O)N(C)C)c2)c2ccccc2n1	-16%	-2%
65	Cc1cccc(C)c1NC(=S)NC(=O)c1ccccc1F	-11%	i
66	Oc1ccc2ccccc2c1CN1CCCCC1	-1%	?
67	COC(=O)COc1ccc(Oc2cc(C)nc(SC)n2)nn1	-5%	-8%
68	CN(C)c1ccc(/C=C/c2cc(=O)[nH]c3ccccc23)cc1	-13%	-18%
69	Cc1cc(S(=O)(=O)Cc2noc(-c3c(C)noc3C)n2)c(C)cc1Cl	-15%	-2%
70	CCOc1ccccc1C=NNc1ccc([N+](=O)[O-])cn1	2%	-13%
71	Nc1cccc2c1C(=O)N(Cc1cccc(Cl)c1)C2=O	-16%	i
72	CCn1cc(C(=O)O)c(=O)c2cnc(N3CCN(C(=S)Nc4ccccc4)CC3)nc21	-7%	-23%
73	CC1=NN(c2ccc(C)c(C)c2)C(=O)/C1=C\C=C\c1ccc([N+](=O)[O-])o1	-2%	i
74	CCOc1cc(OCC)cc(C(=O)N2CCC[C@H]2C(=O)N2CCC[C@H]2C(=O)NCc2cccc(OC)c2)c1	2%	34%[activator]
75	CCc1cccc(CC)c1NC(=S)N1CC2CC(C1)c1cccc(=O)n1C2 (stereo not given)	-13%	i

# Record cards, as listed above. Order of screens: VACV Venus inh, Vaccinia mCherry
# Cc1ccc(S(=O)(=O)N2CCC3(CC2)OCCO3)s1 reads -6%, -3%
# CCOC(=O)c1sc(NC(=O)c2ccco2)c(C#N)c1C reads -5%, -12%

# Additional records.
No.	Molecule	VACV Venus inh	Vaccinia mCherry
76	CCc1ccc(N(CC)C(=O)CCn2cnc3onc(-c4ccc(F)cc4)c3c2=O)cc1	?	?
77	O=C1c2ccsc2SCCN1Cc1ccccc1Cl	-15%	·
78	O=S(=O)(Nc1cccc(-c2ccc(N3CCCCCC3)nn2)c1)c1ccc(F)cc1	-18%&-17%	-16%&-15%
79	O=C(NNc1ccccc1)Nc1ccccc1F	-20%	?
80	CCCCn1c(N)c(N(CC(C)C)C(=O)c2ccc(C)c(S(=O)(=O)N3CCCCC3)c2)c(=O)[nH]c1=O	0%	-15%
81	COc1ccc(NC(=O)CN(C)C(=O)CCCc2nc3ccccc3c(=O)[nH]2)cc1	-10%	-17%
82	CC(C)CCNC(=O)CN(C(=O)CCC(=O)Nc1nccs1)c1ccc2c(c1)OCCO2	-1%	i
83	Cc1oc(-c2ccc(Cl)cc2)nc1CS(=O)CC(=O)NC1CCCC1 (stereo not given)	-10%	i
84	COc1ccc(Br)cc1CN1CCN(C(=O)Cc2ccccc2)CC1	-9%	·
85	Cc1cccc(NC(=O)CN2C(=O)NC(Cc3ccccc3)C2=O)c1 (stereo not given)	-25%	·
86	CCc1ccc(C(=O)OCC(=O)Nc2cccc(S(=O)(=O)NC3=NCCCCC3)c2)cc1	-5%	-10%
87	OC1(c2ccccc2)c2ccccc2-c2ncccc21 (stereo not given)	-5%	-4%
88	CCOC(=O)c1c(C)[nH]c(C)c1S(=O)(=O)N1CCC(C(=O)NCc2cccc(OC)c2)CC1	-15%	i
89	O=c1cc(-c2ccccc2[N+](=O)[O-])oc2ccccc12	?	-20%
90	Cc1ccc(C(=O)OCC(=O)NC(=O)c2ccc(C(C)(C)C)cc2)c(O)c1	-5%	i
91	CC(C)CCn1nnnc1CN1CCN(C(c2ccccc2)c2ccccc2)CC1	-22%	-20%
92	CN1CCc2c([nH]c3ccccc23)C1	3%	-9%
93	O=C(N/C(=C\c1ccccc1)C(=O)N1CCOCC1)c1ccccc1Br	-8%	i
94	CCOc1ccccc1NC(=O)Nc1ccc(OC)nc1	-4%	-13%
95	CCOC(=O)/C=C1\SCC(=O)N1CC(O)CN1C(=O)CS/C1=C\C(=O)OCC	-13%	·
96	O=C1C2C(C(=O)N1Cc1cccnc1)C1C=CC2C12CC2 (stereo not given)	0%	-12%
97	CC1CCc2c(nc3ncnn3c2NCCN(C)C)C1 (stereo not given)	-13%	-12%
98	Cc1cnc(NC(=O)[C@H](C)N2C(=O)C3CCCCC3C2=O)s1 (stereo not given in full)	-5%	-19%
99	CCOC(=O)/C=C1\NC2(CCCCC2)Cc2cc(OC)c(OC)cc21	-9%	i
100	COc1ccc(C(=O)NCC(=O)Nc2cccc(S(=O)(=O)N3CCCC3)c2)cc1	-8%	-13%

# The results go on:
No.	Molecule	VACV Venus inh	Vaccinia mCherry
101	CN=C1S/C(=C\c2c(OC)cc(OC)cc2OC)C(=O)N1C	-7%	23%
102	O=C(NCc1cccs1)[C@@H]1CCCN1S(=O)(=O)c1ccccc1F	2%	i
103	COc1cc(O)c2c(c1)C(=O)c1cc(C)cc(O)c1C2=O	-1%	i
104	CC(C)(C)CC(C)(C)NCC(O)COc1c(F)cc(Br)cc1F (stereo not given)	?	·
105	O=C(c1cccs1)N1CCN=C1SCc1ccccc1	-3%	-15%
106	OCCC1CN(Cc2cccc3nccnc23)CCN1C1CCCC1 (stereo not given)	-4%	-15%
107	CC(=O)Nc1ccc(S(=O)(=O)N(C)CC(=O)N/N=C/c2cccs2)cc1	-1%	-12%
108	O=C(COc1ccc(F)cc1)N(CC1=CCS(=O)(=O)C1)c1ccccc1	-17%	-11%
109	O=C(NCCc1ccccc1)C1Cc2c(-c3ccc4c(c3)OCO4)ccnc2O1 (stereo not given)	-30%	-8%
110	Cc1ccc(C2C=C(c3ccccc3)Nc3nc(NS(=O)(=O)c4ccccc4)nn32)cc1 (stereo not given)	-18%[7.34 µM]	-22%[7.34 µM]
111	O=C(CC[C@H]1O[C@@H](n2ccc(=O)[nH]c2=O)[C@H](O)[C@@H]1O)N[C@H](Cc1ccccc1)C(=O)NCc1ccco1	-2%	33%[activator]
112	CCOc1ccc(/C(O)=C2/C(=O)C(=O)N(c3ncccn3)C2c2ccc(C)cc2)cc1 (stereo not given)	-24%	i
113	O=C(CN1CCN(c2ccc(F)cc2)CC1)c1ccc2c(c1)OCO2	0%	-9%
114	CC(C)OC(=O)CSc1nnc(-c2ccccn2)n1-c1ccccc1	-4%	·
115	O=C(CN1CCN(c2ccccn2)CC1)Nc1cccc(C(F)(F)F)c1	-23%	-4%
116	Cc1[nH]c(C(=O)O)c(C#N)c1C(=O)c1ccccc1	-10%	i
117	Cc1cc2cc(CNC(=O)CCC(=O)O)ccc2n1C	-7%	i
118	COc1ccc(-c2cc(C(=O)NCCCN3CCOCC3)c3ccccc3n2)cc1OC	-27%	-3%
